# Compound activity as filed in PubChem.
# Sfp PPTase inh – qHTS Assay for Inhibitors of Bacillus subtilis Sfp phosphopantetheinyl transferase (PPTase) | Biochemical Sfp PPTase activity, qHTS | Potency, µM, for the others: max response, negative = inhibition, usual class: inhibitors | actives 3.5% (n = 310,000) | AID 1490, 2009; active means well fitted inhibition curve with a large enough effect; inconclusive means small, poorly fitted or top-dose-only effect, or another doubt; inactive means no such curve, though single readings can be large or run the other way;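 further: the enzyme is Sfp with the accession as filed and its product quenches rhodamine fluorescence; potency means the concentration at half of the fitted maximal effect; 0% = enzyme reaction without inhibitor and -100% = no enzyme wells; top concentration of the series not given in the record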
#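 With Hepes-Na pH 7.6 buffer containing 10 mM MgCl2, Sfp (15 nM) modified BHQ-2-YbbR (12.5 uM) using rhodamine-CoA (5 uM). Two reads 30 minutes apart at 525/598 nm yielded each well's rate.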
# PINK1 modulator – A Quantitative High throughput Screen to Identify Chemical Modulators of PINK1 Expression; PINK1 immunofluorescence, high-content cytometry, 24 h; AID 624263, 2012; actives 0.2% (n = 410,000); Potency, µM (series often up to 76.6 µM), inactives show at the top dose activation (PINK1 increase), actives largely listed as activators; active = well fitted activation curve with a large enough effect; inconclusive = small, poorly fitted or top-dose-only effect; inactive = flat fitted curve, though single readings scatter; cell line not stated here;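 further: potency means the concentration at half of the fitted maximal effect; % of control where 0% means no effect; nearly all actives have a fitted effect of over 65% in size; a mitochondrial uncoupler was the plate control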
#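 Stable cell line, 250 cells/well, 12 h attachment; compounds pinned at 5 concentrations, 24 h; CCCP control. Fixed with nuclear dye, primary antibodies 12 h at 10 degrees C, secondary plus cell stain; laser-scanning cytometer read.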
# ClpP mod – qHTS Assay for Activators of ClpP; Potency, µM (titrated, usually from 57.5 µM), without a hit: top-dose activity change, negative = active; AID 651965, 2013; actives 1.9% (n = 340,000); ATP-dependent Clp protease proteolytic subunit (Bacillus subtilis (strain 168)), P80244; purified B. subtilis ClpP, FRET peptide cleavage, 20 min; active = well fitted falling curve with a large enough effect; inconclusive = small, poorly fitted or top-dose-only effect; inactive = no such curve, though single readings can be large or run the other way; further: potency means the concentration at half of the fitted maximal effect; the source files actives as falling curves though it sought activators and does not explain the sign; nearly all actives have a fitted effect of over 65% in size; many hits overshoot -100%
# Target sequence (P80244 whole entry, looked up): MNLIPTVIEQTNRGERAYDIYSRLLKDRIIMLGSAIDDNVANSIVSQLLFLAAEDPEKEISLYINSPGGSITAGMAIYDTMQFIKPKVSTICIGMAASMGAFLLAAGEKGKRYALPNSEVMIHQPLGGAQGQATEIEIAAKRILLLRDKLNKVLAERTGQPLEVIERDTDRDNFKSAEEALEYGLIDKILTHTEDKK
#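 ClpP 10 microg/mL final, pH 8 Tris/KCl buffer with BSA, glycerol, Tween-20; compound pinned in; FRET-FV substrate; RT 20 min; Ex320/Em430; ΔFRET vs ADEP 5.8 microM, DMSO, no enzyme.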
# TRPML1 inh – qHTS for Inhibitors of the Human Mucolipin Transient Receptor Potential 1 (TRPML1); TRPML1-inducible cells, Ca2+ dye fluorescence, FDSS; active compounds read low; inhibition of EC80 agonist-evoked calcium signal; activity change, negative = inhibition, % (no concentration beside the values); actives 0.02% (n = 390,000); in the data active means activity change below about -50%; inconclusive means about -30% to -50%; inactive means above about -30%;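 further: stimulus is agonist 54-4 at its EC80 concentration; on the % scale 0 is the no-effect control and ±100 the full control effect; compound concentration not given in the record; the text of the record puts the active cut at -80%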
#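 Calcium fluorescence in TRPML1-DL cells induced overnight with Tet: a 110 s read after compound pin addition, then a 110 s antagonist read after challenge with 54-4 at 4 uM final (EC80).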
# TRPML1 agonist – qHTS for Agonists of the Human Mucolipin Transient Receptor Potential 1 (TRPML1); TRPML1-expressing cells, Ca2+ dye fluorescence, FDSS; host cell line not named in the record; reference of the full effect not given here; activation, % (test concentration not listed); actives 0.12% (n = 410,000); Mucolipin-1 (Homo sapiens), Q9GZU1; in the data active = activation above about 50%; inconclusive = about 30% to 50%; inactive = below about 30%; further: 0% is about no effect; the text of the record puts the active cut at 80%
#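 Agonist activity was taken from a 110 s kinetic Ca2+ dye read on the FDSS after pinning compounds onto TRPML1-DL cells. The cells were seeded at 1,500/well with Tet inducer, incubated about 16 h, then dye-loaded at room temperature.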
# Menin-MLL FL inh – qHTS Assay for Inhibitors Targeting the Menin-MLL Interaction in MLL Related Leukemias: Competition With Fluorescein Labeled MLL-derived Peptide. Fluorescence polarization, fluorescein-MLL peptide displacement from menin. FP activity change, % at 61.4 µM. 290,000 tested, under 10 active; inconclusive = falling polarisation curve, or a change in total fluorescence; inactive = total fluorescence flat and polarisation flat or rising; no compound was filed as active; the % refers to the polarisation; negative = inhibition;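 further: % of control where 0% means no effect; inhibitors lower the polarisation; unlabelled MLL peptide was the positive control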
# TRPV1 PAM – HTS Assay for Compounds that Act as Potentiators of the Vanilloid Receptor 1; Transient receptor potential cation channel subfamily V member 1 (Homo sapiens), Q8NER1; TRPV1-expressing cells, Fluo-8 calcium influx, capsaicin EC20 potentiation; host cell line not named in the record; control for the full effect not named in the record; potentiation, % at 8.33 µM; actives 0.02% (n = 320,000); active means potentiation above 80%; inconclusive means 30% to 80%; inactive means below 30%; further: 0% is about no effect
# Target sequence (Q8NER1 whole entry, looked up): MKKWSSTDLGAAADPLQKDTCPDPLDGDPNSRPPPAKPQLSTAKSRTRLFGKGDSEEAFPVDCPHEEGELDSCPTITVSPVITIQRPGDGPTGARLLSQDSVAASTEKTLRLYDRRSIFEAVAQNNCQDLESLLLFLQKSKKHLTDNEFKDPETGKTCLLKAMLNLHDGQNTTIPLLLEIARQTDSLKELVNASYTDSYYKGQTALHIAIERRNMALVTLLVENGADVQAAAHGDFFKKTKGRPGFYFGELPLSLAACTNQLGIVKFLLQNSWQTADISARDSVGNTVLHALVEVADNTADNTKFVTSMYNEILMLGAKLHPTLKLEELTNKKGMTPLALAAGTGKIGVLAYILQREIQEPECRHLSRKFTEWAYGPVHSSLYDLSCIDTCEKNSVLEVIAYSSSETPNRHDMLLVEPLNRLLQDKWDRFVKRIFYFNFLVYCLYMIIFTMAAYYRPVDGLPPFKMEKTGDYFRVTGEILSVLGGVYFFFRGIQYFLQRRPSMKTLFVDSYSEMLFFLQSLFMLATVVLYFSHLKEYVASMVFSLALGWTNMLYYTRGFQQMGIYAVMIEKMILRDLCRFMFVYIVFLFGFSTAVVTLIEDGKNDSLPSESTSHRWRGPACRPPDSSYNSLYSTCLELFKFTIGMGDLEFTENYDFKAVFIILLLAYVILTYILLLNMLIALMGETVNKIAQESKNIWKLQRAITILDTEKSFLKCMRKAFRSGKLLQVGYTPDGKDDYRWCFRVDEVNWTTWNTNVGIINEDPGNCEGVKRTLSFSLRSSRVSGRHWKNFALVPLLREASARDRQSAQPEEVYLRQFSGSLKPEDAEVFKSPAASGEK
#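 TRPV1-expressing cells were cultured overnight at 35.5C and loaded with Fluo-8 calcium dye for 40 to 90 min at room temperature. After a 10 s baseline, compound was added and calcium influx was read kinetically for 3 min (ex 480/em 520 nm).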
# * = called active by the depositor; ? = inconclusive; . = no result given; [ ] = remark or other dose. Random draw from the library. About 4.4% of those tested had a hit in this group.
SMILES,Sfp PPTase inh,PINK1 modulator,ClpP mod,TRPML1 inh,TRPML1 agonist,Menin-MLL FL inh,TRPV1 PAM
Cc1cc(N2CCCCC2)nc2ccc(NC(=O)c3ccc(F)cc3)cc12,.,0.6%,22.7%,-15.7,0.0,.,.
CCC(=O)N1CCC1(C)C(=O)Nc1cccc2cccnc12 (configuration not stated),.,0.5%,-18.8%,.,3.5,.,.
CCn1c(=O)cc(OCC(=O)Nc2ccc3c(c2)OCCO3)c2ccccc21,5.5%,-1.2%,1.2%,12.3,2.0,-1.6,19.9
C[C@@H]1COC(=O)[C@H](NC(=O)OCC2c3ccccc3-c3ccccc32)C/C=C\C[C@@H](CC(=O)N[C@H](CO)Cc2ccccc2)C(=O)N1,.,-1.5%,0.2%,2.5,1.4,.,.
O=C(c1ccc2c(c1)OCCO2)N1CCN(c2ccc([N+](=O)[O-])cc2)CC1,-0.5%,.,.,.,.,-0.2,10.1
CCOC(=O)C1(C)NC(c2ccc(O)cc2)C2C(=O)N(c3ccccc3)C(=O)C21 (configuration not stated),1.7%,3.2%,1.3%,.,.,-2.9,2.7
CC1CCN(c2ccc3c(c2)S(=O)(=O)c2cccc(C(=O)NC4CCCCC4)c2C3=O)CC1,.,4.2%,1.5%,18.6,25.2,.,0.5
CCOc1cc(/C=N/NC(=O)c2ccc3c(c2)OCCO3)cc(Br)c1O,-22.1%,1.2%,-1.1%,2.2,-0.4,1.7,3.2
CC(=O)Nc1c(-c2ccc(F)cc2)nc2ccccn12,7.9%,0.1%,5.4%,1.9,-0.5,-1.7,.
O=C(O)c1ccc(OCC(O)Cn2cnc3ccccc32)cc1 (configuration not stated),7.4%,0.5%,-0.6%,4.4,0.1,3.8,9.5
COCCn1c(=O)c(CCc2ccccc2)nc2cnc(Nc3cccc(OC)c3)nc21,1.7%,26.8%,.,.,.,?,.
COc1ccc(Cc2nc3ccc(C(=O)N4CCCCC4CCO)cc3o2)cc1 (configuration not stated),5.3%,0.1%,-3.9%,0.7,0.0,-0.4,21.2
COc1cccc(/C=C/C(=O)OCC(=O)Nc2ccccc2Sc2ccccc2)c1,6.1%,1.5%,.,-6.4,-0.5,5.5,18.3
Brc1ccc(-c2csc(-c3ccncc3)n2)cc1,17.5%,2.2%,1.2%,9.9,0.2,6.2,4.7
COc1ccccc1NS(=O)(=O)c1cccc(C(=O)N2CCCCCCC2)c1,.,-2.5%,-1.2%,12.4,-0.7,.,1.1
CSc1ccc(CN2CCC(CO)(CCOc3ccccc3)CC2)cc1,15.6%,4.1%,0.8%,.,.,2.0,11.6
CCN(Cc1ccccc1)C(=O)c1ccc2c(=O)n3c(nc2c1)CCC3,.,-0.4%,-4.7%,-13.5,-0.5,.,-7.6
Cc1ccccc1NC(=O)c1onc2c1CCCC2,5.3%,2.1%,-0.5%,-1.1,-1.1,6.7,8.7
COc1ccccc1-c1noc(-c2ccccc2C(=O)Nc2cccnc2)n1,16.7%,2.6%[38.3 µM],0.8%,2.7,-0.3,5.6,-12.9
Cc1ccccc1C(=O)Nc1ccccc1N1CCN(C(=O)c2ccccc2)CC1,2.6%,-1.4%,1.8%,0.7,-0.3,0.0,-19.1
Cc1cccc(C(=O)OCC(=O)N2CCCCCC2)c1O,.,-1.1%,-4.7%,19.3,0.6,.,-19.5
CC(=O)Nc1ccc(Nc2cc(N3CCOCC3)c3nonc3c2[N+](=O)[O-])cc1,16.5%,1.9%,.,4.3,-0.4,1.1,4.0
CC(C)OCCCNC(=O)C1CCN(S(=O)(=O)N2CCCC2)CC1,-6.2%,-3.2%,0.3%,9.6,0.5,-2.2,-5.2
CSc1nnc2c(n1)OC(c1ccsc1)N(C(C)=O)c1ccccc1-2 (configuration not stated),4.7%,0.3%,-0.4%,8.4,0.4,3.0,-10.3
COc1ccc(CCC(=O)Nc2nc(-c3ccncc3)cs2)cc1,-17.3%,.,.,.,.,3.4,5.5
# Next part:
SMILES,Sfp PPTase inh,PINK1 modulator,ClpP mod,TRPML1 inh,TRPML1 agonist,Menin-MLL FL inh,TRPV1 PAM
CC(C)CN(C(=O)COC(=O)c1nc(Cl)ccc1Cl)C1CCS(=O)(=O)C1 (configuration not stated),17.9%,0.4%,.,-10.9,-0.2,-5.0,-3.3
Cc1cc(N(C)C)c(C#N)c(N2CCCCC2)n1,16.5%,1.8%,-30.0%,-27.5,-0.5,-1.0,?
CCOc1ccc(NC(=O)c2cc3c(C)nn(-c4ccccc4)c3s2)cc1,.,16.2%,-16.4%,3.4,0.6,.,.
COc1ccc(C(=O)Nc2ccncc2)c(OC)c1,10.9%,3.0%,.,49.6,1.8,-0.1,-5.7
COc1cc(/C=C2\SC(=S)N(NC(=O)c3ccc(O)c(OC)c3)C2=O)ccc1O,1.7%,2.4%,.,-9.4,14.4,?,12.2
Nc1ccc(C23CC4CC(CC(O)(C4)C2)C3)cc1,4.2%,-2.2%,-3.0%,-1.0,-0.2,-2.4,12.0
CN(CC(=O)Nc1ccccc1Br)C(=O)C(Cc1ccccc1)NC(=O)c1ccccc1 (configuration not stated),5.4%,1.2%,-2.1%,18.7,-0.2,.,-22.5
COc1ccccc1CNC(=O)c1cc(S(=O)(=O)N2CCN(c3ccccc3)CC2)ccc1Cl,.,1.0%,0.7%,-6.0,1.6,.,.
CCOC(=O)[C@H]1[C@H]2COc3cc(OC)ccc3[C@@H]2N2C(=O)CN(Cc3ccc(Cl)cc3)C(=O)[C@@]12C,.,1.0%,0.6%,-3.2,-0.6,.,.
O=C(Nc1ccc(Cl)cn1)C1CCCN(c2ncnc3c2nc2n3CCCCC2)C1 (configuration not stated),0.9%,0.4%,1.7%,2.5,-0.1,-1.6,8.3
CCOc1ccccc1C(=O)NN1C(=O)CCC1=O,10.9%,-1.5%,-22.9%,-8.1,0.3,2.1,-3.1
COc1ccc(CCN(C)C2CCCN(C(=O)CCC(F)(F)F)C2)cc1OC (configuration not stated),4.4%,-1.3%,-0.5%,8.5,-0.5,2.1,2.9
O=S(=O)(N1CCCCC1)N1CCN(c2cc(Cl)ccc2Cl)CC1,-11.0%,0.0%,.,10.2,1.1,1.6,-6.7
Cc1ccccc1-n1c(N)c(C(=O)Nc2ccc(F)cc2)sc1=S,?,5.6%,-2.1%,-12.4,0.0,0.0,-16.9
COC(=O)c1[nH]c2ccc(Cl)cc2c1NC(=O)CN1CCc2cc(OC)c(OC)cc2C1,-22.9%,1.5%,?,-14.7,-1.3,-2.8,-4.3
CC(=O)c1cccc(NC(=O)Cn2nc(-c3ccc(Cl)cc3)ccc2=O)c1,-20.4%,1.7%,-2.5%,20.2,0.1,3.9,-11.6
O=C(c1ccc(F)cc1)N1c2ncnn2C2(CCCCC2)[C@@H]2CCCC[C@@H]21,.,0.0%,-0.4%,2.8,0.5,.,.
CCCNC(=O)c1n[nH]c(=O)c2ccccc12,13.9%,5.4%,-0.4%,-4.8,-0.7,-0.8,1.4
Cc1cccc(NC(=O)CSc2nnc(NC(=O)CN3CCOCC3)s2)c1,4.6%,1.6%,-0.4%,-7.6,-0.3,1.5,4.8
COc1ccccc1CNC(=O)CCc1c(C)c2ccc(OC)c(C)c2oc1=O,.,0.9%,4.2%,15.7,-0.5,.,.
COC(=O)Nc1nnc(-c2ccncc2)s1,-51.9%,-7.3%[38.3 µM],?,0.3,0.3,-0.3,-3.4
Cc1cc(NCCCn2ccnc2)n2ncc(-c3ccc(Cl)cc3)c2n1,-4.9%,6.5%[38.3 µM],20µM*,5.3,0.4,2.5,3.6
CC(C)NCc1c(O)c(Br)cc2oc3c(c12)CCCC3,3.9%,0.6%,0.5%,8.3,-0.9,1.8,12.2
CCCCc1ccc(/C=C2\C(=O)c3ccccc3C(O)=C2C(=O)OCC)cc1,3.16µM*,.,.,.,.,5.4,10.1
COc1cccc(NC(=O)CSc2nnc3c(n2)[nH]c2ccc(C)cc23)c1,4.0%,2.4%,?,48.5,0.3,.,-0.5

# Overlap with the part before: 2 compounds, then new ones.
SMILES,Sfp PPTase inh,PINK1 modulator,ClpP mod,TRPML1 inh,TRPML1 agonist,Menin-MLL FL inh,TRPV1 PAM
CCCCc1ccc(/C=C2\C(=O)c3ccccc3C(O)=C2C(=O)OCC)cc1,3.16µM*,.,.,.,.,5.4,10.1
COc1cccc(NC(=O)CSc2nnc3c(n2)[nH]c2ccc(C)cc23)c1,4.0%,2.4%,?,48.5,0.3,.,-0.5
O=c1cc(-c2ccccc2)nc(Cc2c(Cl)cccc2Cl)[nH]1,2.2%,3.2%,-5.6%,7.4,0.7,6.2,21.4
CCOC(=O)CN1C(=O)N[C@@H](CCc2ccccc2)[C@H](C(=O)OC)[C@H]1C,2.7%,-0.4%,0.8%,-23.4,0.3,2.1[11.7 µM],.
CCOc1ccc(NC(=O)COc2ccc(-n3cnnn3)cc2)cc1,.,-1.0%,2.2%,-3.7,-0.2,.,-16.6
CCC(C)NC(=O)Cn1nc([N+](=O)[O-])c(Cl)c1C (configuration not stated),10.5%,10.7%,-1.2%,-0.9,1.3,1.7,7.4
CCOC(=O)[C@@H]1[C@H]2COc3cc(OC)ccc3[C@H]2N2C(=O)N(c3cccc(F)c3)C(=O)[C@@]12C,.,0.4%,-2.8%,70.1,0.8,.,.
CSc1nc(C)cc(C)c1C#N,4.2%,3.2%,-1.9%,-4.6,1.9,5.6,16.5
CC(=O)Nc1ccc2c(c1)nc1n2CCN(C(C)c2ccccc2)C1 (configuration not stated),-3.3%,-0.4%,.,-0.6,0.7,-1.1,6.3
CCOC(=O)Cc1csc(NC(=O)CC(C)(C)CC(=O)O)n1,8.6%,-0.8%,.,11.9,0.2,6.1,-0.1
C=CCOc1nc2c(c(=O)n(Cc3ccc(Cl)c(Cl)c3)c(=O)n2C)n1C,.,0.4%,0.9%,11.5,1.1,.,.
